Bioassay records (PubChem)
Sfp PPTase inh: blocks B. subtilis Sfp PPTase activity; Biochemical Sfp PPTase activity, qHTS; Potency, µM, for the others: max response, negative = inhibition, most hits filed as inhibitors; 310,000 compounds, 3.5% hits; AID 1490; active = well fitted inhibition curve with a large enough effect; inconclusive = small, poorly fitted or top-dose-only effect, or another doubt; inactive = no such curve, though single readings can be large or run the other way;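 also: the enzyme is Sfp with the accession as filed and its product quenches rhodamine fluorescence; potency is read from the fitted curve at half-maximal effect; 0% = enzyme reaction without inhibitor and -100% = no enzyme wells; top concentration of the series not given in the record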
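Step 1, compound plus 15 nM Sfp-PPTase, 15 min, room temperature. Step 2, add rhodamine-CoA (5 uM) and BHQ-2-YbbR (12.5 uM). Step 3, read 525/598 nm fluorescence at 0 and 30 min.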
gsp agonist: agonists of gsp mutant (McCune-Albright syndrome) | gsp mutant cells, cAMP HTRF, 30 min; control for the full effect not named in the record | Potency, µM (titrated, usually from 76.9 µM), for the others: at the highest dose activation (cAMP increase), actives largely listed as activators | 340,000 compounds, 0.13% hits | AID 624287; active = well fitted activation curve with a large enough effect; inconclusive = small, poorly fitted or top-dose-only effect, or another doubt; inactive = no such curve, though single readings can be large or run the other way; cell line not stated here;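 also: phosphodiesterase inhibitor Ro 20-1724 added with compounds to block cAMP breakdown; potency is read from the fitted curve at half-maximal effect; nearly all actives have a fitted effect of over 60% in size; about a fifth of the inactives were tested at one dose only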
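Cells in DMEM/10% FBS with G418 were pretreated with compounds in DMSO plus […] (300 uM stock) for 30 min at 37C. cAMP was measured by HTRF (cAMP-d2 plus anti-cAMP antibody-K) after 30 min at room temperature.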
TRPV1 potentiator: potentiators of human vanilloid receptor 1 (TRPV1). Q8NER1. TRPV1-expressing cells, Fluo-8 calcium influx, capsaicin EC20 potentiation; host cell line not named in the record; control for the full effect not named in the record. potentiation, % at 8.33 µM. 320,000 compounds, 0.02% hits. AID 540277; active means potentiation above 80%; inconclusive means 30% to 80%; inactive means below 30%; also: 0% is about no effect
Target sequence (Q8NER1 whole entry, looked up): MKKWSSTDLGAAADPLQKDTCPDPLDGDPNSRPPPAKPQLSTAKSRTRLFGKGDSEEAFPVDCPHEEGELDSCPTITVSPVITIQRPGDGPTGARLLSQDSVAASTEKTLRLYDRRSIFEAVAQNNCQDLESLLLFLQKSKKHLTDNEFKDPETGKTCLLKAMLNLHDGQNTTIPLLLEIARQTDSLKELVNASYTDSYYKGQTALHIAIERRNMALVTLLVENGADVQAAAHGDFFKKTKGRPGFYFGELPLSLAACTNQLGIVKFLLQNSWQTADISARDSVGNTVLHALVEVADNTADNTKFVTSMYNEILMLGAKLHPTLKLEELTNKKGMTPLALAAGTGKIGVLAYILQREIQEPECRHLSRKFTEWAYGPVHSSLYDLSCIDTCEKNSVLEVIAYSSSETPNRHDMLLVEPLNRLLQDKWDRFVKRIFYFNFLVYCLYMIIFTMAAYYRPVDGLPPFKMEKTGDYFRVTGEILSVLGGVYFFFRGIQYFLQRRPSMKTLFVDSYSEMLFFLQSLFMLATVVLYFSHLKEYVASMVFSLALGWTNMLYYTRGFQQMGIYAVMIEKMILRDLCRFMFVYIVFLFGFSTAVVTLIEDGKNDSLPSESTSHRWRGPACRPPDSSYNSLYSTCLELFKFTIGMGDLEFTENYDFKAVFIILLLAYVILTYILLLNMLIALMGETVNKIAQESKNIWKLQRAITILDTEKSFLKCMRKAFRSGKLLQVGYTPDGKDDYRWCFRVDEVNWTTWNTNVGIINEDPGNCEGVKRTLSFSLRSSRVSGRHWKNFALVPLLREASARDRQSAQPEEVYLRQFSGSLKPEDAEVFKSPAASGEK
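TRPV1-expressing cells were cultured overnight at 35.5C and loaded with Fluo-8 calcium dye for 40 to 90 min at room temperature. After a 10 s baseline, compound was added and calcium influx was read kinetically for 3 min (ex 480/em 520 nm).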
gsp antag: gsp mutant antagonism. gsp-mutant cells, cAMP HTRF, 30 min; control for the full effect not named in the record. Potency, µM (top dose mostly 76.9 µM), for the others: at the top dose activity change, negative = inhibition, actives largely listed as inhibitors. 340,000 compounds, 0.4% hits. AID 624288; active = falling curve of any shape with a large fitted effect; inconclusive = falling curve, mostly with a smaller effect; inactive = flat or rising curve; cell line not stated here;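 also: intracellular cAMP measured with PDE inhibitor Ro 20-1724 present during compound exposure; potency is read from the fitted curve at half-maximal effect; % is scaled to controls: 0 for no effect and ±100 for the full control effect; nearly all actives have a fitted effect of over 65% in size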
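HTRF cAMP read-out (cAMP-d2 plus anti-cAMP antibody-K in lysis buffer, 30 min RT). Before lysis, cells are exposed to compounds with […] for 30 min at 37C in DPBS containing Ca/Mg, BSA and Tween 20.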
ClpP mod: qHTS Assay for Activators of ClpP | ATP-dependent Clp protease proteolytic subunit (Bacillus subtilis (strain 168)), P80244 | purified B. subtilis ClpP, FRET peptide cleavage, 20 min | Potency, µM (titrated, usually from 57.5 µM), without a hit: at the top dose activity change, negative = active | 340,000 compounds, 1.9% hits; active = well fitted falling curve with a large enough effect; inconclusive = small, poorly fitted or top-dose-only effect; inactive = no such curve, though single readings can be large or run the other way; also: potency is read from the fitted curve at half-maximal effect; the source files actives as falling curves though it sought activators and does not explain the sign; nearly all actives have a fitted effect of over 65% in size; many hits overshoot -100%
Target sequence (P80244 whole entry, looked up): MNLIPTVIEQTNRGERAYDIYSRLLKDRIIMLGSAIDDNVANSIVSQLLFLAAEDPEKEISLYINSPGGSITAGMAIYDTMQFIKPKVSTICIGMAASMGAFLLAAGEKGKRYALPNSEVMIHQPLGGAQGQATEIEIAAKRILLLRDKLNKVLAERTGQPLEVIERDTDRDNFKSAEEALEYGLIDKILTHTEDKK
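ClpP 10 microg/mL final, pH 8 Tris/KCl buffer with BSA, glycerol, Tween-20; compound pinned in; FRET-FV substrate; RT 20 min; Ex320/Em430; ΔFRET vs ADEP 5.8 microM, DMSO, no enzyme.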
CtBP-E1A blk: blocks the CtBP interaction with E1A; AID 651724; AlphaScreen GST-E1A/His-CtBP binding, 1536-well; hits give low values; control for the full effect not named in the record; 340,000 compounds, 0.49% hits; activity change, % (test concentration not listed); in the data active means activity change below about -65%; inconclusive means about -30% to -65%; inactive means above about -30%; also: % is scaled to controls: 0 for no effect and ±100 for the full control effect
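In 5 uL wells, 23 nL compound meets equimolar GST-E1A and His-CtBP (5X stock 125 nM each) for 2 h, 37 °C. Beads (5X, 50 ug/mL) then 1 h, 37 °C, dark.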
Menin MLL FP FL: inhibitors of human menin-MLL interaction, wild-type MLL peptide; Fluorescence polarization, fluorescein-MLL peptide displacement from menin; FP activity change, % at 61.4 µM; 290,000 tested, under 10 active; inconclusive = falling polarisation curve, or a change in total fluorescence; inactive = total fluorescence flat and polarisation flat or rising; no compound was filed as active; the % refers to the polarisation; negative = inhibition;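 also: % of control where 0% means no effect; inhibitors lower the polarisation; unlabelled MLL peptide was the positive control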
Active calls of the source: *; [ ] = another dose, or the depositor's remark.

`CC(C)Cc1nnc(NC(=O)CCC(=O)N2CCN(c3ccccc3F)CC2)s1` gave Sfp PPTase inh 11.9%, gsp agonist 24.0%, TRPV1 potentiator 6.3, gsp antag 3.1%, ClpP mod -2.0%, CtBP-E1A blk 0.2 and Menin MLL FP FL 2.0.
CCCS(=O)(=O)c1c(S(=O)(=O)CCC)c2ccc(C(N)=O)cn2c1C(=O)c1ccc(F)cc1 was read as Sfp PPTase inh 1.0%, gsp agonist 16.8%, TRPV1 potentiator 2.1, gsp antag 0.9%, CtBP-E1A blk 5.1 and Menin MLL FP FL 0.2.
Cc1noc(C)c1C(=O)Nc1ccc(F)cc1F was read as Sfp PPTase inh 26.6%, gsp agonist inconclusive, TRPV1 potentiator 2.7, gsp antag 3.6%, ClpP mod -1.7%, CtBP-E1A blk -0.8 and Menin MLL FP FL 0.1.
Cc1cc(=O)oc2c(C)c(OCC(=O)NCCc3ccc(S(N)(=O)=O)cc3)ccc12 was read as Sfp PPTase inh 11.0%, gsp agonist 1.6%, TRPV1 potentiator 12.1, gsp antag -7.0%, ClpP mod 3.1%, CtBP-E1A blk 12.7 and Menin MLL FP FL -0.5.
Screening O=C(NCc1nc2ccccc2[nH]1)C1=C[C@H](C2CCCCC2)C[C@H](OCc2ccc(CO)cc2)O1 returned Sfp PPTase inh 19.0%, gsp agonist 17.6%, TRPV1 potentiator 12.7, gsp antag -22.5%, ClpP mod -0.4%, CtBP-E1A blk -3.8 and Menin MLL FP FL -0.2.
COc1cccc(C2CC(c3ccc(Br)cc3)=NN2C(=O)c2ccncc2)c1OC (stereo not given) was read as Sfp PPTase inh -15.9%, gsp agonist 13.3%[15.4 µM], TRPV1 potentiator -4.0, gsp antag inconclusive, CtBP-E1A blk -16.0 and Menin MLL FP FL 0.5.
For NC(=O)COC(=O)c1ccc(Cl)c(S(=O)(=O)N2CCCCCC2)c1 the results were Sfp PPTase inh 4.7%, gsp agonist -27.1%, TRPV1 potentiator -20.3, gsp antag 6.7%, CtBP-E1A blk 4.1 and Menin MLL FP FL -1.5.
For Clc1cccc(-c2ccc(/C=N/n3cnnc3)o2)c1 the results were Sfp PPTase inh -20.7%, gsp agonist -3.6%, TRPV1 potentiator -4.8, gsp antag 2.4%, ClpP mod -17.3%, CtBP-E1A blk -11.4 and Menin MLL FP FL -0.7.
For O=C1CCCCC1Nc1ccc(Cl)cc1 (stereo not given) the results were gsp agonist -26.3%, gsp antag 13.7%, ClpP mod -4.5% and CtBP-E1A blk 24.2.
`Cc1c(C)n(CCCN(C)C)c2ncnc(NC3CCCCC3)c12` gave Sfp PPTase inh -0.1%, gsp agonist -41.8%[inhibitor][15.4 µM], TRPV1 potentiator 5.3, gsp antag 2.9%, CtBP-E1A blk -23.7 and Menin MLL FP FL -0.1.
Screening COc1ccc(C(O)(C(=O)NNc2ccc(C)cc2)c2cccs2)cc1 (stereo not given) returned Sfp PPTase inh 9.8%, gsp agonist -11.9%, TRPV1 potentiator -2.6, gsp antag -3.0%, ClpP mod -4.6%, CtBP-E1A blk -6.4 and Menin MLL FP FL 3.0.
For COc1cc(C(=O)N[C@H](C(=O)Nc2nnc(C3CC3)s2)C(C)C)cc(OC)c1OC the results were Sfp PPTase inh 9.9%, gsp agonist -2.9%, TRPV1 potentiator 10.0, gsp antag -6.3%, ClpP mod 0.8% and Menin MLL FP FL 5.1.
Screening Cc1occc1C(=O)N1CCCC(Nc2ccc(F)c(F)c2)C1 (stereo not given) returned Sfp PPTase inh 2.2%, gsp agonist inconclusive, TRPV1 potentiator -1.0, gsp antag -1.4%, ClpP mod 0.9% and CtBP-E1A blk 0.1.
Screening CCC(=O)N1CC2(CC(c3cccc([N+](=O)[O-])c3)=NO2)C[C@H]1C(=O)NCC(N)=O (stereo not given in full) returned Sfp PPTase inh 21.8%, TRPV1 potentiator -4.0, gsp antag 12.8%, ClpP mod 0.6%, CtBP-E1A blk 2.6 and Menin MLL FP FL 1.6.
Screening C=CCn1c(SCc2ccc(C#N)cc2)nnc1-c1ccccc1 returned Sfp PPTase inh -2.0%, gsp agonist 12.0%, TRPV1 potentiator 7.8, gsp antag -11.2%, ClpP mod 1.3%, CtBP-E1A blk 2.9 and Menin MLL FP FL 2.6.
For O=C(NNc1nc2ccccc2s1)C1CC1 the results were Sfp PPTase inh 44.7µM*, gsp agonist -1.6%, TRPV1 potentiator 8.8, gsp antag 13.4%, ClpP mod 1.0%, CtBP-E1A blk 5.2 and Menin MLL FP FL 4.8.
Screening C=CCc1ccc(OCCCCOc2ccc(C(=O)O)cc2)c(OC)c1 returned Sfp PPTase inh 9.6%, gsp agonist 0.1%[15.4 µM], TRPV1 potentiator 5.9, gsp antag -26.3%, CtBP-E1A blk 0.5 and Menin MLL FP FL -1.7.
Cc1ccc(Cn2c(C)c3cnn(CC(=O)NCCN4CCOCC4)c(=O)c3c2C)cc1 was read as gsp agonist -11.2%, gsp antag 1.2%, ClpP mod -20.6% and CtBP-E1A blk 7.2.
`Cc1nnc2sc(-c3ccc(N(C)C)cc3)nn2c1=O` gave Sfp PPTase inh 7.5%, gsp agonist inconclusive, TRPV1 potentiator -0.5, gsp antag -12.5%, ClpP mod inconclusive and Menin MLL FP FL 7.9.
Screening CC(NCCN(C)C)C1CCC2C3CCc4cc(O)ccc4C3CCC12C (stereo not given) returned gsp agonist -1.1%, gsp antag -6.6%, ClpP mod -1.9% and CtBP-E1A blk -1.4.
CCOC(=O)N1CCN(c2nc(C)c3c(n2)CCCC3=O)CC1 was read as Sfp PPTase inh 13.9%, gsp agonist -23.8%, TRPV1 potentiator 6.7, gsp antag -11.1%, ClpP mod -4.9%, CtBP-E1A blk -1.5 and Menin MLL FP FL -1.9.
For COC(=O)NNC(=O)c1cccc(C)c1 the results were Sfp PPTase inh 25.9%, gsp agonist 2.4%, TRPV1 potentiator -4.9, gsp antag 11.2%, ClpP mod -22.3%, CtBP-E1A blk 1.7 and Menin MLL FP FL 4.2.
Screening O=c1cc(-c2ccccc2)[nH]n1-c1nc2ccccc2[nH]1 returned Sfp PPTase inh 5.2%, gsp agonist -4.0%, TRPV1 potentiator 13.8, gsp antag -13.2%, ClpP mod 49.4%, CtBP-E1A blk -77.2* and Menin MLL FP FL 0.2.
Screening CCOc1ccc(Nc2nc3c(c(=O)[nH]2)CCC3)cc1 returned Sfp PPTase inh 5.6%, gsp agonist -55.7%[inhibitor], TRPV1 potentiator -5.3, gsp antag -16.5%, ClpP mod -1.4%, CtBP-E1A blk -1.5 and Menin MLL FP FL 2.2.
C=CCOc1ccc(C=Nc2ccc(Cl)cc2)c(O)c1 was read as Sfp PPTase inh 7.2%, gsp agonist -27.3%, TRPV1 potentiator -8.8, gsp antag 6.7%, ClpP mod -3.6%, CtBP-E1A blk 15.5 and Menin MLL FP FL -0.2.
For Cc1ccc(C)c(NC(=S)NCc2ccc3[nH]c4c(c3c2)CCCC4)c1 the results were Sfp PPTase inh -6.9%, gsp agonist -50.9%[inhibitor], TRPV1 potentiator 10.8, gsp antag -6.6%, ClpP mod -5.8%, CtBP-E1A blk -20.9 and Menin MLL FP FL 0.6.
For N=C1C(=O)OCC1c1ccccc1NC(=O)CN1CCOCC1 (stereo not given) the results were Sfp PPTase inh 5.4%, gsp agonist -21.6%, TRPV1 potentiator -22.3, gsp antag 1.4%, ClpP mod 1.4%, CtBP-E1A blk 20.9 and Menin MLL FP FL -0.9.
CCCCN(C)CCCNC(=O)c1cn(C)c2ccc(S(=O)(=O)N(C)C3CCCCC3)cc2c1=O was read as Sfp PPTase inh 6.6%, gsp agonist 0.6%, TRPV1 potentiator 6.5, gsp antag 8.8% and ClpP mod 2.7%.
For CCCNC(=O)CN1C(=O)NC(c2ccccc2)(c2ccccc2)C1=O the results were Sfp PPTase inh 4.2%, gsp agonist -4.0%[15.4 µM], TRPV1 potentiator 0.8, gsp antag 4.6%, CtBP-E1A blk 0.0 and Menin MLL FP FL -2.3.
CCCC(=O)N(Cc1cc(=O)[nH]c2ccccc12)c1ccccc1C was read as Sfp PPTase inh -13.3%, gsp agonist -3.0%[15.4 µM], TRPV1 potentiator 4.4, gsp antag 4.0%, ClpP mod -3.2%, CtBP-E1A blk -6.0 and Menin MLL FP FL 2.1.
Screening O=[N+]([O-])c1ccccc1S(=O)(=O)NCCSc1ccccc1 returned Sfp PPTase inh 16.4%, gsp agonist -13.8%, TRPV1 potentiator -2.3, gsp antag 4.9%, CtBP-E1A blk -11.3 and Menin MLL FP FL -0.5.
Screening O=C(CN1CC[C@@]2(O)CCCC[C@H]2[C@@H]1c1ccc(F)cc1)NCc1ccco1 returned Sfp PPTase inh -13.5%, gsp agonist -4.1%, TRPV1 potentiator -29.3, gsp antag -4.2%, CtBP-E1A blk -8.2 and Menin MLL FP FL 1.2.
For CCOc1ccc(NC(=S)N(CCOC)C2CCN(C(C)C)CC2)cc1 the results were Sfp PPTase inh 6.8%, gsp agonist -7.1%, TRPV1 potentiator 26.7, gsp antag 9.9%, ClpP mod -0.4% and Menin MLL FP FL -0.2.
`Cc1cccc(OCc2nc(C#N)c(NCc3ccc4c(c3)OCO4)o2)c1` gave Sfp PPTase inh 20.4%, gsp agonist -5.4%, TRPV1 potentiator -5.2, gsp antag -9.3%, ClpP mod 0.4%, CtBP-E1A blk -15.5 and Menin MLL FP FL 0.6.
For Cc1ccc(C)c(-n2nnnc2SCC(=O)Nc2c(C)n(C)n(-c3ccccc3)c2=O)c1 the results were Sfp PPTase inh 13.5%, gsp agonist -14.1%, TRPV1 potentiator -1.5, gsp antag -2.7%, ClpP mod -0.3%, CtBP-E1A blk 4.3 and Menin MLL FP FL 0.6.
Screening O=C(Cc1csc(Nc2nc(=S)[nH]c3ccccc23)n1)NCc1ccc(Cl)cc1 returned Sfp PPTase inh inconclusive, gsp agonist 21.5%, TRPV1 potentiator -1.6, gsp antag 10.5%, ClpP mod -0.6%, CtBP-E1A blk 3.1 and Menin MLL FP FL 6.7.
O=C(CNC1=NCCC1)c1ccc2c(c1)OCCO2 was read as Sfp PPTase inh 30.7%[activator], gsp agonist -15.7%, TRPV1 potentiator -0.3, gsp antag 5.5%, ClpP mod -12.4%, CtBP-E1A blk 7.6 and Menin MLL FP FL -0.9.
Screening O=C(N/N=C/c1ccco1)c1cc(-c2ccc(Cl)s2)[nH]n1 returned Sfp PPTase inh 9.7%, gsp agonist -2.5%, TRPV1 potentiator 5.8, gsp antag inconclusive, ClpP mod -3.2%, CtBP-E1A blk -19.4 and Menin MLL FP FL -1.1.
